Screening results (PubChem)
Vaccinia mCherry: qHTS for Stage-Specific Inhibitors of Vaccinia Orthopoxvirus: mCherry Reporter Primary qHTS | actives 0.63% (n = 310,000) | Vaccinia virus mCherry reporter infection, fluorescence; about a quarter of the inactives have no number | AID 720579, 2013 | Potency, µM (highest dose often 36.5 µM), for inactives: top-dose activity change, negative = inhibition, usual class: inhibitors; active = well fitted inhibition curve with a large enough effect; inconclusive = small, poorly fitted or top-dose-only effect; inactive = no such curve, though single readings can be large or run the other way; tested in A549 cells; further: nearly all actives have a fitted effect of over 35% in size; inactives centre near -10
VACV Venus inh: qHTS for Stage-Specific Inhibitors of Vaccinia Orthopoxvirus: Venus Reporter Primary qHTS; AID 720580, 2013; Vaccinia virus Venus reporter expression, fluorescence; Potency, µM (doses to about 36.5 µM), without a hit: at the highest dose activity change, negative = inhibition, hits mostly inhibitors; actives 0.46% (n = 330,000); active means well fitted inhibition curve with a large enough effect; inconclusive means small, poorly fitted or top-dose-only effect; inactive means no such curve, though single readings can be large or run the other way; tested in A549 cells; further: nearly all actives have a fitted effect of over 30% in size; inactives centre near -10
Active calls of the source: *; i = inactive; ? = inconclusive; . = no result given; [ ] = dose if it differs, or a comment. On the % scale 0 is the no-effect control and ±100 the full control effect; potency means the concentration at half of the fitted maximal effect.

| Structure | Vaccinia mCherry | VACV Venus inh |
| --- | --- | --- |
| O=C(/C=C/c1ccccc1)Oc1ccc(C(=S)N2CCOCC2)cc1 | -12% | -10% |
| O=C(NCc1nc2ccccc2[nH]1)C1=C[C@H](c2ccc(Br)cc2)C[C@H](OCc2ccc(CO)cc2)O1 | i | ? |
| Cc1ccc(C)c(Oc2cc(NN3CCCCC3)c([N+](=O)[O-])cc2[N+](=O)[O-])c1 | ? | -23% |
| CC(=O)N1CCC(C(=O)c2ccc(Cl)cc2)CC1 | -8% | -6% |
| COc1cnc(-c2ccccc2)nc1OC | -12% | -8% |
| Cc1ccc(CNC(=O)C2CCCN(S(=O)(=O)c3cnc[nH]3)C2)cc1 (centres undefined) | 5% | -15% |
| COc1ccc(C(=O)Nc2cccc(S(C)(=O)=O)c2)cc1OC | i | 7% |
| Cc1ccc(-c2c(C)n([O-])c3c([n+]2=O)CCCC3)cc1 | -4% | -2% |
| Cc1ccc(-c2sc(C)nc2CC(=O)O)cc1 | . | -15% |
| Cc1cc(Sc2nc(N)ncc2[N+](=O)[O-])ncn1 | -4% | 0% |
| CSC(=CC(=O)c1ccccc1)SC | i | -11% |
| COc1ccc(C(=O)C(CN2CCOCC2)c2ccccc2)cc1 (centres undefined) | 10µM* | 10µM* |
| CN1CCN(c2ccc(Cl)cc2NC(=O)c2ccc(=O)n(C)n2)CC1 | -17% | -4% |
| c1ccc(SCc2nc(-c3ccccn3)no2)cc1 | . | -10% |
| COC(=O)Cc1ccc(NC(=O)c2cccs2)cc1 | -8% | ? |
| CCOC(=O)C1=C(C)N(C)C(=S)NC1c1cc(OC)ccc1OC (centres undefined) | -1% | -15% |
| COc1ccc(Cn2cc(CN3CC(N4CCN(C)CC4)CS3(=O)=O)nn2)cc1 (centres undefined) | i | -1% |
| O=C(O)CC1COc2ccccc2N1S(=O)(=O)c1ccc(Br)cc1 (centres undefined) | -14% | -4% |
| COc1ccc(C2(Nc3cccc(F)c3)C(=O)c3ccccc3C2=O)cc1 | -8% | -5% |
| CSc1nnc(CNC(=O)c2cccc3ccccc23)n1-c1ccccc1C | -6% | 1% |
| COc1ccc2oc(C(=O)OCc3c(C)noc3C)c(C)c2c1 | -14% | -22% |
| Cc1ccc(CN2CCC(C(=O)c3ccc(F)cc3)CC2)cc1 | -7% | -10% |
| CCCCCCC(=O)Nc1cc2c(C)cc(=O)oc2cc1C | i | -8% |
| COC(=O)c1ccc(COC(=O)c2c(C)nn(Cc3ccccc3Cl)c2Cl)o1 | -2% | -10% |
| COCCN(C(=S)Nc1ccccc1C)C(C)c1cccnc1 (centres undefined) | -6% | -4% |
| COc1ccc(N2CCN(C(=O)C3(S(=O)(=O)c4ccc(C)cc4)CC3)CC2)cc1 | ? | -10% |
| COc1ccc(Cn2c(=O)[nH]c3cc(C(=O)N4CCN(c5ccccc5F)CC4)ccc3c2=O)cc1 | -6% | 0% |
| CCOc1cccc(=O)c2c(C)n(-c3ccc(C(=O)O)cc3)c(C)c12 | -15% | -3% |
| CCOc1ccc(NC(=S)NC(=O)/C=C/c2ccc(C)cc2)c([N+](=O)[O-])c1 | -13% | -9% |
| COc1ccc(C(=O)Nc2nnc(Cc3cccs3)s2)cc1OC | . | ? |
| O=C(NCc1ccccc1)C1=C[C@@H](c2ccc(Br)cc2)C[C@@H](OCc2ccc(CO)cc2)O1 | -26% | ? |
| O=C(CCS(=O)(=O)c1ccccc1)Nc1nc2c(s1)COc1ccccc1-2 | -8% | -9% |
| Cc1c(NC(=S)NC(=O)C(C)(C)C)cccc1[N+](=O)[O-] | -15% | -8% |
| CC(Cc1c[nH]c2ccccc12)C(=O)NCc1ccco1 (centres undefined) | i | -10% |
| O=C(CCC(=O)N1CC2CCCN2c2ccccc21)NCc1cccc(Cl)c1 (centres undefined) | -10% | -9% |
| CCO[C@H]1OC(C(=O)NCc2nc3ccccc3[nH]2)=C[C@@H](C2CCCCC2)[C@@H]1CCCO | 4% | -19% |
| S=c1nc[nH]c2c1cnn2Cc1ccccc1 | -30% | -4% |
| Cc1cccc(C(=O)Oc2c(Br)cc(Br)cc2/C=N/NC(=O)c2ccncc2)c1 | -11% | 7% |
| CCc1c(O)nc(SCC(=O)Nc2ccc(Cl)cc2)n(-c2ccccc2)c1=O | -11% | -3% |
| CCN(CC)S(=O)(=O)c1ccc2c(c1)N(CC(=O)NCCc1ccc(OC)c(OC)c1)C(=O)CO2 | -1% | -5% |
| Cc1ccc(F)c(NC(=O)C2CCCCC2C(=O)O)c1 (centres undefined) | -14% | -9% |
| COc1cc2cc(CCOC(=O)c3ccc(C#N)cc3)oc(=O)c2cc1OC | i | -7% |
| C/C(=N\N(C)C)C1=C(O)c2ccccc2C1=O | -6% | -7% |
| CCc1ccc2oc(C(=O)NCc3ccccc3)cc(=O)c2c1 | -2% | -10% |
| O=c1c2ccccc2nc2n1C(CSCc1ccc(Cl)cc1)CS2 (centres undefined) | . | ? |
| CCC(C)NC(=O)C1CCC(CNS(=O)(=O)c2ccc3c(c2)CC(C)N3C(=O)C2CC2)CC1 (centres undefined) | -21% | -12% |
| Cc1ccc(S(=O)(=O)N2CCC(=O)N(CCOC(=O)Nc3ccccc3C)CC2)cc1 | -22% | -21% |
| O=C(N/N=C/c1cccc(O)c1)c1cc(C2CC2)nc2ccccc12 | -2% | -20% |
| CC(OC(=O)CN(C)S(=O)(=O)c1ccc(Cl)cc1)C(=O)Nc1ccc(N2CCOCC2)cc1 (centres undefined) | . | -8% |
| O=C(CN1CCOCC1)Nc1cccc([N+](=O)[O-])c1 | i | -16% |
| CCOC(=O)Cn1c(=O)n(CC(=O)OCC)c2ccccc21 | -2% | -10% |
| O=C(COC(=O)c1cccc(C(F)(F)F)c1)NC(=O)NC1CCCC1 | -17% | -12% |
| c1ccc2c(c1)OCCc1c-2[nH]c2ccccc12 | ? | ? |
| O=C(NC1CCCCC1)N1CCCCCCC1 | . | -11% |
| C=CCn1c2ccccc2c2nn(C)c(=S)nc21 | i | -14% |
| COc1ccc(N2CCN(C(=O)Oc3ccc([N+](=O)[O-])cc3)CC2)cc1 | i | -3% |
| O=C(Nc1cccc(Br)c1)c1ccccc1-c1ccccc1 | -14% | -2% |
| CC(C)(C)c1ccc(C(=O)CSc2n[nH]c(=O)[nH]c2=O)cc1 | -13% | -4% |
| CCN1C[C@@]2(COC)C3[C@@H](OC)[C@H]4[C@@H]1[C@@]3(C1C[C@H]3[C@H](O)C1[C@]4(O)C[C@H]3OC)[C@@H](OC)C[C@H]2O (some centres undefined) | -1% | 2% |
| Cc1cc(NC(=O)CN2CCOCC2)n(-c2ccccc2)n1 | i[7.34 µM] | -1%[7.34 µM] |

Compound profiles, from the list above:
Listed for O=C(CN1CCOCC1)Nc1cccc([N+](=O)[O-])c1 → Vaccinia mCherry: i; VACV Venus inh: -16%
Listed for CCC(C)NC(=O)C1CCC(CNS(=O)(=O)c2ccc3c(c2)CC(C)N3C(=O)C2CC2)CC1 (centres undefined) → Vaccinia mCherry: -21%; VACV Venus inh: -12%

Other records follow:
| Structure | Vaccinia mCherry | VACV Venus inh |
| --- | --- | --- |
| COc1ccc(CCNC(=O)c2cccc(-n3c(C)nc4cccnc43)c2)cc1OC | -24% | -22% |
| O=C(COC(=O)c1ccc(O)cc1)NCC1COc2ccccc2O1 (centres undefined) | -1% | -15% |
| CCOc1ccc2nc(SCC(=O)NCc3ccccc3OC)[nH]c2c1 | -25% | -7% |
| C=CCn1c(SCC(=O)NCCc2ccccc2)nc2c([nH]c3ccccc32)c1=O | -8% | -8% |
| Cc1ccc(Nc2ccc(NCc3ccccc3)nn2)cc1C | ? | -24% |
| Cc1ccc(N2C(=O)Nc3cc(Cl)c(Cl)cc3N2O)cc1Cl | -5% | -10% |
| Cc1nc2sc(C(c3ccc(Cl)cc3)N3CCN(CCO)CC3)c(O)n2n1 (centres undefined) | -7% | -12% |
| Nc1ccc(C(=O)Nc2ccc3c(O)cc(S(=O)(=O)O)cc3c2)cc1 | -8% | -1% |
| COc1cc(C=O)ccc1OCCOc1ccccc1[N+](=O)[O-] | -13% | -12% |
| Cc1ccc(N2CCN(C(=O)N3CCOCC3)CC2)cc1C | -5% | -10% |
| Cc1ccccc1NS(=O)(=O)c1ccc2[nH]cc(C(=O)N3CCCCC3)c(=O)c2c1 | -5%[7.34 µM] | -4%[7.34 µM] |
| COCCNc1ncnc2c1ncn2[C@H]1CN(CCc2ccccc2)C[C@@H](CO)O1 | -3% | -1% |
| COC(=O)c1c(NC(=O)c2cc3ccccc3c(=O)o2)sc2c1CCCC2 | 4% | 14% |
| COc1ccc(CCN(C)C(=O)CSc2ncnc3sccc23)cc1OC | -17% | -6% |
| CCOC(=O)Nc1cccc2c1-c1ccc([N+](=O)[O-])cc1C2=O | -12% | -2% |
| O=C(N[C@@H](Cc1ccc(O)cc1)C(=O)O)C(c1ccccc1)c1ccccc1 | i | -12% |
| CCN(CC)S(=O)(=O)c1cccc2c(N(C)C)cccc12 | . | -22% |
| CCCCN1C(=O)C(CC(=O)NCc2ccco2)CC(C(=O)N(CC)CC)=C1C (centres undefined) | -9% | -14% |
| O=C(NCc1ccccc1)C(c1ccco1)N(C(=O)c1csnn1)c1ccccc1 (centres undefined) | -27% | 6% |
| O=C(NCc1ccc2c(c1)OCO2)C(=O)NCC1CCCO1 (centres undefined) | -6% | -2% |
| O=[N+]([O-])c1ccc(S(=O)(=O)N2CCN(c3ccccn3)CC2)cc1 | i | -3% |
| O=C(Nc1nccs1)c1csc2c1CCCC2 | -23% | -13% |
| CCc1ccc(N2CCn3c2nc2c3c(=O)n(CCc3ccccc3)c(=O)n2C)cc1 | -3% | 5% |
| CC(C)(C)C(=O)Nc1ccc2nc(SCc3ccccc3)sc2c1 | -29% | -22% |
| CC1(C)Cc2ccccc2C(C(Cc2ccccc2)C(N)=O)=N1 (centres undefined) | -10% | -11% |
| COc1ccccc1NC(=O)CSc1ccc2nnc(-c3cccnc3)n2n1 | -9% | -6% |
| Cc1cc(C)n(CC(O)COc2c(C)cccc2C)n1 (centres undefined) | i | -12% |
| CCOC(=O)N1CCN(CC(O)c2c[nH]c3ccccc23)CC1 (centres undefined) | -15% | -4% |
| CC1(C)CC[C@]2(C(=O)O)CC[C@]3(C)C(=CC[C@@H]4[C@@]5(C)CC[C@H](O)C(C)(C)[C@@H]5CC[C@]43C)[C@@H]2C1 | -5% | -14% |
| c1csc(CNc2nc(-c3cccs3)nc3ccccc23)c1 | -21% | -18% |
| O=C1NC[C@H](CC2CCCCC2)N(CC2CCCCC2)C1=O | i | -18% |
| CCOc1cc(C(=O)OCC(=O)c2cc(C)n(CC3CCCO3)c2C)ccc1OCC(=O)N1CCOCC1 (centres undefined) | -16% | -11% |
| Cc1ccccc1Nc1nn2c(=O)c3ccc(C(=O)NCc4cccs4)cc3nc2s1 | -23% | ? |
| COc1cc(C(=O)N2CCCC(C)(C(=O)NS(=O)(=O)C3CC3)C2)cc(OC)c1OC (centres undefined) | 32% | -15% |
| CCc1nn2c(=O)cc(COC(=O)Cc3ccccc3)nc2s1 | -5% | -2% |
| O=C(NC1CC2CCCC(C1)N2C(=O)Nc1ccccc1Cl)C1CC1 (centres undefined) | i | -9% |
| COc1ccc2c(C)c(CC(=O)NCc3ccccc3Cl)c(=O)oc2c1OC | -3% | -1% |
| Cc1cc(NC(=O)c2ccc(NC(=O)CCS(=O)(=O)c3cccs3)cc2)ccc1Br | -3% | -27% |
| Cc1nc2ccccc2nc1N/N=C/c1ccc(O)cc1O | ? | -27% |
| COCCC(=O)N1CCC(Oc2ccc(C(=O)N3CCCCCCC3)cc2)CC1 | -14% | -7% |

Quoted from the listing:
`COc1ccccc1NC(=O)CSc1ccc2nnc(-c3cccnc3)n2n1` | VACV Venus inh = -6%
`c1csc(CNc2nc(-c3cccs3)nc3ccccc23)c1` | VACV Venus inh = -18%

(further entries)
| Structure | Vaccinia mCherry | VACV Venus inh |
| --- | --- | --- |
| Cc1cccn2c(=O)cc(COc3ccc(NC(=O)C(C)C)cc3)nc12 | -11% | -12% |
| COc1ccc(-c2cc(C(F)(F)F)n3nc(C(=O)Nc4cccc(Cl)c4Cl)cc3n2)cc1OC | 1% | -2% |
| O=C1CCC/C=C\C[C@@H](CC(=O)N(CCO)Cc2ccccc2)C(=O)N[C@H](Cc2c[nH]c3ccccc23)CO1 | -8% | ? |
| O=C(Cc1ccc(Br)cc1)N1CCCCCC1 | 0% | -19% |
| Cc1noc(C(=O)Nc2cccc(O)c2)c1Cl | ? | 8% |
| CC(=O)N1CCc2cc(S(=O)(=O)NCCC3=CCCCC3)ccc21 | -13% | ? |
| c1ccc(-c2nnc(CN3CCC4(CC3)OCCO4)o2)cc1 | . | -8% |
| COC(=O)[C@H](NCc1ccc(OC)c(B(O)O)c1)C(C)C | i | -3% |
| COc1ccc(Br)c(C(=O)OCC(=O)N2CCC(Cc3ccccc3)CC2)c1 | -32% | ? |
| NC(=O)NC(=O)C(c1ccccc1)N1CCN(S(=O)(=O)Cc2ccccc2)CC1 (centres undefined) | -2% | -5% |
| CCC(=O)Nc1sc2c(c1C(=O)N(C)C)CCCCC2 | -15% | -9% |
| CCc1c(C)sc(NC(=O)CCc2ccc(OC)cc2)c1C(N)=O | -12% | -9% |
| O=c1[nH]nc(CSCc2ccccc2Cl)[nH]1 | -9% | -3% |
| CN(C)c1ccc(C=NNC(=O)c2cccc3ccccc23)c(Cl)c1 | ? | -30% |
| Cc1ccc(C2=NS(=O)(=O)N(C)C(C(=O)NCc3ccco3)=C2)cc1 | -18% | 2% |
| COc1ccc(CN2CCCC(CNC(=O)c3ccc(F)cc3)C2)cc1OC (centres undefined) | -6% | -9% |
